gsp antagonist – gsp mutant antagonism; 340,000 tested, 0.4% active; gsp-mutant cells, cAMP HTRF, 30 min; control for the full effect not named in the record; Potency, µM (series often up to 76.9 µM), for the others: at the top dose activity change, negative = inhibition, hits mostly inhibitors; AID 624288; active = falling curve of any shape with a large fitted effect; inconclusive = falling curve, mostly with a smaller effect; inactive = flat or rising curve; cell line not stated here;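 note: intracellular cAMP measured with PDE inhibitor Ro 20-1724 present during compound exposure; potency is the fitted concentration of half-maximal effect; % is set by controls: 0 for no effect and ±100 for the full control effect; nearly all actives have a fitted effect of over 65% in size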
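G418-selected cells were plated in DMEM/10% FBS for 16-24 h at 37C, then treated with compounds plus the PDE inhibitor […] (300 uM solution added) for 30 min at 37C. Intracellular cAMP was measured by HTRF after 30 min lysis at room temperature.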
CtBP-E1A inh – blocks the CtBP interaction with E1A; AlphaScreen GST-E1A/His-CtBP binding, 1536-well; hits give low values; control for the full effect not named in the record; activity change, % (no concentration beside the values); 340,000 tested, 0.49% active; AID 651724; in the data active means activity change below about -65%; inconclusive means about -30% to -65%; inactive means above about -30%; note: % is set by controls: 0 for no effect and ±100 for the full control effect; compound concentration not given in the record
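Steps: dispense buffer (Tris pH 8.0, NaCl 300 mM, TCEP 1 mM, BSA, Tween 20); add 5X protein mix (GST-E1A, His-CtBP, 125 nM each); pin 23 nL compound; 2 h at 37 °C, dark; add 5X beads (50 ug/mL); 1 h; read.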
TRPV1 potentiator – human TRPV1 potentiation; potentiation, % at 8.33 µM; TRPV1-expressing cells, Fluo-8 calcium influx, capsaicin EC20 potentiation; host cell line not named in the record; control for the full effect not named in the record; 320,000 tested, 0.02% active; active means potentiation above 80%; inconclusive means 30% to 80%; inactive means below 30%; note: 0% is about no effect
Target sequence (Q8NER1 whole entry, looked up): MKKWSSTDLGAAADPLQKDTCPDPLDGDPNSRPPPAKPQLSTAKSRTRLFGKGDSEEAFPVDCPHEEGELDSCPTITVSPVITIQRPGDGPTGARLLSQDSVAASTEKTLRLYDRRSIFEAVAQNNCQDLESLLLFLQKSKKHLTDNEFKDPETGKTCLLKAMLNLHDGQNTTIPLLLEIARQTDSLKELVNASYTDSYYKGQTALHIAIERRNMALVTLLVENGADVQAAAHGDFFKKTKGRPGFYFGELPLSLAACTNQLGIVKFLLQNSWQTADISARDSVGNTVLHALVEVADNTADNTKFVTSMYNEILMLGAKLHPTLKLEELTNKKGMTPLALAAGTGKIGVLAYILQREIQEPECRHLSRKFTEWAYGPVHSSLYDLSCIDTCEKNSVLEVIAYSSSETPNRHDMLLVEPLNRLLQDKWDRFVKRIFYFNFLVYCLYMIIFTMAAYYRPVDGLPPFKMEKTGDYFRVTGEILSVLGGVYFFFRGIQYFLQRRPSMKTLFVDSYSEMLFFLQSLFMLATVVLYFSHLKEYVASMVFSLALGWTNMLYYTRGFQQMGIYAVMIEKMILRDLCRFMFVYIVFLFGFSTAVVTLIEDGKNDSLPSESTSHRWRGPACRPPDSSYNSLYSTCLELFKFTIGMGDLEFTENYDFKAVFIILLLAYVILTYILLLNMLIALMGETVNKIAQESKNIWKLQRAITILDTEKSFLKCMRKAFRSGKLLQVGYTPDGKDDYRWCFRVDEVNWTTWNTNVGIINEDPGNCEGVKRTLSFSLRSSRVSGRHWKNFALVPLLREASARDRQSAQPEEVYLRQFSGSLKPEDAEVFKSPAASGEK
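TRPV1-expressing cells were cultured overnight at 35.5C and loaded with Fluo-8 calcium dye for 40 to 90 min at room temperature. After a 10 s baseline, compound was added and calcium influx was read kinetically for 3 min (ex 480/em 520 nm).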
Menin MLL FP FL – menin-MLL binding inhibition, fluorescein peptide; Fluorescence polarization, fluorescein-MLL peptide displacement from menin; FP activity change, % at 61.4 µM; 290,000 tested, under 10 active; inconclusive = falling polarisation curve, or a change in total fluorescence; inactive = total fluorescence flat and polarisation flat or rising; no compound was filed as active; the % refers to the polarisation; negative = inhibition;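 note: % of control where 0% means no effect; inhibitors lower the polarisation; unlabelled MLL peptide was the positive control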
Sfp PPTase inh – inhibitors of Bacillus subtilis Sfp phosphopantetheinyl transferase; 310,000 tested, 3.5% active; Biochemical Sfp PPTase activity, qHTS; Potency, µM, for the others: max response, negative = inhibition, actives largely listed as inhibitors; Q9F4F7; active = well fitted inhibition curve with a large enough effect; inconclusive = small, poorly fitted or top-dose-only effect, or another doubt; inactive = no such curve, though single readings can be large or run the other way;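 note: the enzyme is Sfp with the accession as filed and its product quenches rhodamine fluorescence; potency is the fitted concentration of half-maximal effect; 0% = enzyme reaction without inhibitor and -100% = no enzyme wells; top concentration of the series not given in the record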
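After 15 min at room temperature with compound, 15 nM Sfp received 5 uM rhodamine-CoA plus 12.5 uM BHQ-2-ybbR (50 mM Hepes pH 7.6, 10 mM MgCl2). Rate came from the fluorescence difference over 30 min, ex 525/em 598 nm.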
ClpP mod – qHTS Assay for Activators of ClpP; ATP-dependent Clp protease proteolytic subunit (Bacillus subtilis (strain 168)), P80244; purified B. subtilis ClpP, FRET peptide cleavage, 20 min; Potency, µM (top dose mostly 57.5 µM), for the others: at the top dose activity change, negative = active; 340,000 tested, 1.9% active; AID 651965, 2013; active = well fitted falling curve with a large enough effect; inconclusive = small, poorly fitted or top-dose-only effect; inactive = no such curve, though single readings can be large or run the other way; note: potency is the fitted concentration of half-maximal effect; the source files actives as falling curves though it sought activators and does not explain the sign; nearly all actives have a fitted effect of over 65% in size; many hits overshoot -100%
Target sequence (P80244 whole entry, looked up): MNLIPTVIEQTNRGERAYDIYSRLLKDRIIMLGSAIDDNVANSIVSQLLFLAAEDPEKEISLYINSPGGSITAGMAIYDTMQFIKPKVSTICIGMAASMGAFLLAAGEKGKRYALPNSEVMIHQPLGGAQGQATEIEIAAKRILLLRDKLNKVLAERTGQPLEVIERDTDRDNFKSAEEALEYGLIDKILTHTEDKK
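FRET quenching reversal measured ClpP activation: 10 microg/mL B. subtilis ClpP at pH 8 with the FRET-FV decapeptide, read at 430 nm after 320 nm excitation. The 20-min minus 0-min signal was scaled between DMSO/no-enzyme wells and ADEP (5.8 microM final).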
gsp agonist – activates gsp, the McCune-Albright syndrome mutation; gsp mutant cells, cAMP HTRF, 30 min; control for the full effect not named in the record; 340,000 tested, 0.13% active; Potency, µM (highest dose often 76.9 µM), without a hit: at the highest dose activation (cAMP increase), most hits filed as activators; active = well fitted activation curve with a large enough effect; inconclusive = small, poorly fitted or top-dose-only effect, or another doubt; inactive = no such curve, though single readings can be large or run the other way; cell line not stated here;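 note: phosphodiesterase inhibitor Ro 20-1724 added with compounds to block cAMP breakdown; potency is the fitted concentration of half-maximal effect; nearly all actives have a fitted effect of over 60% in size; about a fifth of the inactives were tested at one dose only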
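Cells stably selected in G418 were plated at 2000/well, grown 16-24 hr, then given compounds in DMSO with the PDE inhibitor […] (300 uM solution added) for 30 min at 37C; cAMP was read by HTRF.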
Numbers without * were called inactive; ? = inconclusive; / = not tested or not shown; & = joins results of further samples; [ ] = remark or other dose.

SMILES	gsp antagonist	CtBP-E1A inh	TRPV1 potentiator	Menin MLL FP FL	Sfp PPTase inh	ClpP mod	gsp agonist
CC(C)CCOP(=O)(c1ccc(N(C)C)cc1)C(O)c1ccc(C(C)C)cc1 (stereo unspecified)	-17%	/	-25	0.6	25%	-2.7%	-2%
COc1ccc(C(=O)N2CCC3(CC2)OCCO3)cc1	4%	-9	9	-0.4	5%	/	-29%
COc1cccc(-c2nn(CCC#N)cc2C(=O)Nc2ccccc2Cl)c1	-9%	/	-5	1.2	8%	0.8%	-4%
COc1ccc(OC)c(-n2c(O)c(/C=C3\C(C)=Nc4ccccc43)c(=O)[nH]c2=O)c1	-2%	-16	3	?	5%	/	-10%[15.4 µM]
N#CCCn1cc(C(=O)Nc2ccccc2Cl)c(-c2ccc([N+](=O)[O-])cc2)n1	-13%	0	-5	-0.8	11%	0.1%	-4%[15.4 µM]
CCOP(=O)(Cc1cc(C(=O)CC)c(C)o1)OCC	-3%	-1	-5	0.0	?	0.5%	-18%
Oc1cc(Cl)c(Cl)c(Cl)c1Cl	-12%	-21	/	/	/	/	0%[15.4 µM]
CCC1C2Cc3ccc(O)cc3C1(CC)CCN2C (stereo unspecified)	10%	23	/	/	/	2.7%	-10%
Cc1cc(C)c(S(=O)(=O)N2Cc3ccccc3-n3nncc3C2)c(C)c1	/	1	/	/	/	0.6%	-86%
COc1cc(C2c3cc4c(cc3CC3COC(=O)C32)OCO4)cc(OC)c1O (stereo unspecified)	10%	-16	/	/	/	-4.8%	21%
CCCCn1c(O)c(C(C)=Nc2ccc(C(=O)O)cc2)c(=O)[nH]c1=O	0%	3	9	-0.4	-3%	2.8%	?
CC(=O)c1ccc(OC(C)C)c(Cc2c(O)[nH]c(=S)[nH]c2=O)c1	11%	8	-8	0.0	22µM*	-1.4%	-6%
CN(C)c1ccc([P+](=O)c2ccc(N(C)C)cc2)cc1	-3%	-4	-2	3.6	5%	/	-18%
CCCCc1nc(N2CCNCC2)c(C#N)c2c1CSC(C)(C)C2	-3%	0	-11	4.2	1%	-29%	0%
CSc1ncc(/C=C2/C(=O)NC(=O)N(c3ccc(C)cc3)C2=O)cn1	6%	-7	-3	6.6	45µM*	/	-13%
CCN(CC)c1nc2c(C)cccn2c(=O)c1C=C1C(=O)NC(=O)NC1=O	3%	0	-11	3.1	2%	/	?
CN(C)c1cccc2c(C#N)ccc(N(C)C)c12	-2%	-8	7	4.7	2%	/	-1%[15.4 µM]
CC(C)(O)C(=O)Nc1ccc([N+](=O)[O-])c(C(F)(F)F)c1	-6%	0	-10	/	/	0.8%	/
O=C(c1ccc(Cl)cc1)C1CCCN(C2CCSCC2)C1 (stereo unspecified)	10%	-8	-7	-4.1	6%	/	-7%
CCC(C)NC(=O)c1c(N)n(CCCOC)c2nc3ccccc3nc12 (stereo unspecified)	-6%	25	-17	-1.7	2%	?	?
COc1ccc(C(=O)c2nc3ccccc3n2C(C)C)cc1OC	10%	-10	-13	0.1	4%	-5.1%	?
Cc1ccc2[nH]c(C)c(CCNCc3ccco3)c2c1	5%	/	9	0.0	4%	-0.7%	-8%
O=C(Cc1ccccc1)Oc1ccc(N2C(=O)CCC2=O)cc1	7%	-1	0	1.3	15%	0.4%	-49%[inhibitor]
Cc1cccc(N2C(=O)NC(=O)/C(=C/c3ccc([N+](=O)[O-])o3)C2=O)c1	2%	-22	-3	?	13µM*	-2.7%	14%
Cc1cc(N2C(=O)C3CCCN3C2c2cccc(Cl)c2)no1 (stereo unspecified)	-2%	4	19	-2.6	5%	0.1%	26%

A run of entries from the list above:
SMILES	gsp antagonist	CtBP-E1A inh	TRPV1 potentiator	Menin MLL FP FL	Sfp PPTase inh	ClpP mod	gsp agonist
CC(=O)c1ccc(OC(C)C)c(Cc2c(O)[nH]c(=S)[nH]c2=O)c1	11%	8	-8	0.0	22µM*	-1.4%	-6%
CN(C)c1ccc([P+](=O)c2ccc(N(C)C)cc2)cc1	-3%	-4	-2	3.6	5%	/	-18%

(next part)
SMILES	gsp antagonist	CtBP-E1A inh	TRPV1 potentiator	Menin MLL FP FL	Sfp PPTase inh	ClpP mod	gsp agonist
CP(=O)(O)CCCN	7%	8	-1	0.9&-0.7&8.5	14%&19%&9%	-1.8%	-13%
O=P(Nc1c(Cl)cccc1Cl)(c1ccccc1)c1nc2c(s1)CCCC2 (stereo unspecified)	2%	50	0	-1.1	4%	1.3%	12%
CN(C)CCN=Cc1c(O)n(-c2cccc(C(F)(F)F)c2)c(=O)[nH]c1=O	4%	9	-5	9.6	-1%	0.7%	8%
O=C(c1ccccc1F)N1C[C@H]2C[C@@H](C1)c1cccc(=O)n1C2	-4%	-11	-16	-0.1	23%	-15%	/
O=c1c2ccccc2[nH]c(=S)n1-c1ccc2c(c1)OCO2	12%	-13	6	2.1	20%	-0.9%	-11%
Cc1c(/C=N/O)c2ccccc2n1C	-4%	-1	15	-1.3	-4%	-5.1%	-1%
CCC(=NCc1ccc2c(c1)OCO2)c1c(O)n(C2CCCCC2)c(=O)[nH]c1=O	?	-5	-14	9.0	-6%	-3.5%	-8%
COc1ccccc1C1CC2CCC(C1OC(C)=O)N2Cc1ccccc1 (stereo unspecified)	-6%	-8	1	3.3	-1%	0.4%	-18%
O=C(NC(c1ccc(Cl)cc1)P(=O)(Oc1ccccc1)Oc1ccccc1)OCc1ccccc1 (stereo unspecified)	-11%	6	-6	0.1	19%	1.8%	3%
COc1ccccc1OCC#CCN1CCCC(C)C1 (stereo unspecified)	14%	/	-3	1.7	0%	-0.4%	-13%
O=C(O)c1ccccc1S	/	/	6	2.7	?	/	/
COC(=O)C1=C(c2ccc(OC)c(OC)c2)C[C@@H]2CC[C@H]1N2C(=O)NC1CCCCC1	3%	5	11	/	/	1.6%	/
C[C@]12CC[C@H](O)C[C@H]1CC[C@@H]1C2CC[C@]2(C)[C@@H](C3=CC(=O)OC3)[C@@H](O)C[C@]12O (stereo partly specified)	5%	5	-3	/	/	1.0%	/
COc1cccc([C@@]2(O)CCCC[C@@H]2CN(C)C)c1	13%	7	?	-3.7&-0.5&0.2	12%&12%&-3%	/	9%[15.4 µM]
CC12CCC3C(CC=C4CC(O)CCC43C)C1C/C(=C\c1ccccc1F)C2=O (stereo unspecified)	-13%	4	-11	4.6	11%	1.2%	6%
O=Cc1cn(CCCOc2ccccc2)c2ccccc12	-12%	13	-5	6.6	-17%	-1.5%	22%
CN1CCN(c2ccc(S(C)(=O)=O)cc2[N+](=O)[O-])CC1	3%	5	12	2.3	1%	0.9%	-3%[15.4 µM]
O=c1cccc2n1CC1CC2CN(Cc2cccc(Cl)c2Cl)C1 (stereo unspecified)	-20%	-3	-3	-1.7	-8%	0.6%	-39%[inhibitor]
COC(=O)C1=C(c2ccc(OC(F)(F)F)cc2)C[C@@H]2CC[C@H]1N2C(=O)NCCNC(C)=O	8%	-2	-6	/	/	-0.8%	/
CN(C(=O)COC(=O)c1cn(C)c2ccccc12)C1CCCCC1	8%	3	-5	/	/	-2.5%	-53%[inhibitor]
O=c1[nH]c(=S)n(-c2ccccc2F)c(O)c1C=NCCN1CCNCC1	3%	/	-2	-18	-8%	1.9%	8%
Cc1ccc(S(=O)(=O)N2Cc3ccccc3-n3nncc3C2)cc1	-5%	-10	/	/	/	-0.5%	/
Cc1c2ccncc2c(C)c2c1[nH]c1ccccc12	-2%	8	-10	?	22µM*	?	/
CS(=O)(=O)N1Cc2ccccc2-n2nncc2C1	5%	5	/	/	/	-0.2%	/
CC(=O)SCCC(=O)N1C(C)CCCC1C(=O)O (stereo unspecified)	3%[15.4 µM]	1	8	-1.3	19%	-3.5%	9%

Remaining list, next part:
SMILES	gsp antagonist	CtBP-E1A inh	TRPV1 potentiator	Menin MLL FP FL	Sfp PPTase inh	ClpP mod	gsp agonist
COc1cc(/C=C2\C[C@H]3[C@@H]4CC=C5C[C@@H](N6CCCC6)CC[C@]5(C)[C@H]4CC[C@]3(C)[C@H]2O)cc(OC)c1OC	8%	13	/	/	/	0.9%	1%
CN1CCN(C(=O)COc2ccc(C(C)(C)C)cc2Br)CC1	12%	-2	-14	-0.5	13%	2.3%	-2%
O=C(C1CCC(=O)N1Cc1ccccc1Cl)N1CCC2(CC1)OCCO2 (stereo unspecified)	5%	0	7	1.4	16%	21%	-38%[inhibitor]
O=[N+]([O-])CCO	1%	0	1	/	/	1.3%	/
C#CCOc1ccc(Br)cc1C(c1c(C)[nH][nH]c1=O)c1c(C)[nH][nH]c1=O	5%	/	0	-0.1	3%	0.5%	-54%[inhibitor]
O=C(NC1CCCCC1)Oc1cc2oc(=O)sc2cc1Cl	11%	-5	-15	6.2	3.5µM*	/	13%
C[C@@H]1CN([C@H](C)CO)C(=O)CCCn2nncc2CO[C@@H]1CN(C)C(=O)Nc1ccc(N2CCCCC2)cc1	/	6	/	/	/	2.1%	-6%
Cc1cc(OCC(=O)O)c2c3c(c(=O)oc2c1)CCCC3	-4%	-6	-14	1.0	6%	?	-7%
C=CCN1C(=O)/C(=C/c2ccc(N3CCOCC3)o2)C(=O)NC1=S	8%	1	8	?	-5%	0.4%	-15%
O=c1[nH]c(=O)n(CCc2ccc(F)cc2)c(O)c1C=NCc1ccc2c(c1)OCO2	3%	1	5	6.5	?	-3.9%	5%
COC(=O)C1=C(c2ccc3ccccc3c2)C[C@@H]2CC[C@H]1N2C(=O)N1CCOCC1	11%	-24	-27	/	/	-5.4%	/
COc1ccc(CN2CCNCC2)cc1	-2%	/	-12	-2.8	13%	-1.9%	-6%
Cc1cccc(N2CCN(Cc3ccc4c(c3)OCO4)CC2)c1C	4%	-16	4	-1.2	-26%	/	?
COc1cc(C(=O)NN=Cc2ccc(N(CCCl)CCCl)cc2)cc(OC)c1OC	23%	-3	/	/	/	/	?
O=C(CN1CCCCC1)NNC(=O)c1cccc(Br)c1	1%	-2	9	-1.4	11%	/	-64%[inhibitor]
O=NN1CCCCC1	-2%	6	-4	/	/	-1.1%	/
CCOC(=O)CC1c2ccccc2-n2nncc2CN1Cc1ccc(OC)cc1 (stereo unspecified)	-3%	2	/	/	/	-0.2%	/
O=C(c1ccccc1F)c1cn(CC(=O)N2CCOCC2)c2ccccc12	-5%	4	11	1.6	22%	5.3%	1%

Source: PubChem BioAssay (National Center for Advancing Translational Sciences (NCATS))

Some of the compounds tested; rates above refer to the full screens.
